# High-throughput results as filed in PubChem.
# A1 inh: inhibitors of the anti-apoptotic protein A1, read as caspase activation | MEF A1-2A-BIM cells, Caspase-Glo 3/7 luminescence, 3 h; percent of clofoctol response, vehicle zero | caspase activation, % (test concentration not listed) | hit rate 0.066% among 330,000;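 active means over half of replicate activation scores above 10%, or exactly half above 10 with the replicate mean above 10; inconclusive means replicate mean below 10 yet half the replicates above 10; inactive means over half of replicates below 10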;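 further: wells of about 30 µL received 50 nL stock; many hits fall short of the cut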
# T cruzi inh: T. cruzi replication inhibition; T. cruzi beta-gal in NIH3T3, luminescence, 90 h; inhibition, % (test concentration not listed); hit rate 1.4% among 300,000; AID 1885;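 active means mean inhibition across valid replicates above about 55%, limit read from the data; inconclusive means mean below that limit but half or more replicates reach it; inactive means mean below it, under half of replicates reach it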;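 further: signal also drops with host cell toxicity which is not excluded here; 0% = plate median of DMSO wells and 100% = zero luminescence signal; higher percent means less beta-gal luminescence so fewer parasites; stock transfer was 50 nL into about 50 µL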
# RanGTP-Impb inh: inhibitors of RanGTP-importin-beta interaction, primary screen, biochemical, FRET, CFP-Ran, YFP-importin-beta, homogeneous | cell-free CFP-Ran/YFP-importin-beta FRET ratio | inhibition, % (test concentration not listed) | hit rate 1.1% among 300,000;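 active means most replicates above 15%; inconclusive means exactly half above 15%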;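 further: 0% = DMSO wells and 100% = Ran loaded with GDP instead of GTP; wells of about 40 µL received 100 nL stock; the first replicate is given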
# Beta2AR agonist: human beta-2 adrenergic receptor agonism by FAP; AID 504454; P07550; Am2.2-beta2AR cells, FAP receptor internalization, flow cytometry; reference of the scale not given here; hit rate 0.43% among 340,000; response, % (no concentration beside the values);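 active means response above a set limit, near 3 SD of response in nonfluorescent compounds, cut at about 42% in these data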;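 further: stock transfer was 100 nL into about 11 µL; a reference agonist was the positive control; negative values mostly stem from fluorescent compounds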
# Target sequence (P07550 whole entry, looked up): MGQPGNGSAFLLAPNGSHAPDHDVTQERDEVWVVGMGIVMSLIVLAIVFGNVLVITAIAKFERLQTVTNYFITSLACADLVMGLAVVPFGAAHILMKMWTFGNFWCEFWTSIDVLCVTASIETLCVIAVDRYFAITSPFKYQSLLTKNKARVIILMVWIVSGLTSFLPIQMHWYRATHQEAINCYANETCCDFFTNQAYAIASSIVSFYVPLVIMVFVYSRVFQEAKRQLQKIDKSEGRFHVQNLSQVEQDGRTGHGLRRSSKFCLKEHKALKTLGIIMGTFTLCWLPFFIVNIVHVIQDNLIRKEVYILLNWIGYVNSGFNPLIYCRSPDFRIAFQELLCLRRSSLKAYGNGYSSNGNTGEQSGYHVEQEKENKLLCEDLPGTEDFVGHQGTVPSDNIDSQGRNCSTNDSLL
# Calb FLC: C. albicans growth modulation with fluconazole | AID 1979 | growth inhibition, % (test concentration not listed) | C. albicans CaCi-2 (fluconazole-resistant clinical isolate) + fluconazole, Alamar Blue growth, 48 h | hit rate 0.57% among 300,000;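 active means most replicates above 75%; inconclusive means exactly half above 75%; inactive means most below 75%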;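 further: all wells also contain fluconazole at 8 µg/ml as a sub-toxic cotreatment; 0% = median of DMSO wells and 100% = median of geldanamycin control wells; wells of about 8 µL received 7.5 nL stock; the first replicate is given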
# Beta cell apopt: beta cell apoptosis inhibition | INS-1E cytokine-induced death, ATP luminescence, 48 h; percent of positive-control rescue, neutral wells zero | protection from apoptosis, % (concentration not given with the values) | hit rate 0.8% among 300,000 | AID 435005;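 active means all replicates at 75% or more, or half of them and the mean; inconclusive means half reach 75% but not the mean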;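 further: 0% = cytokine-treated negative control wells and 100% = positive control rescue; higher means more ATP so stronger rescue from cytokine killing; wells of about 40 µL received 100 nL stock; the first replicate is given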
# LANA-H2B inh: blocks KSHV LANA binding to histone H2A/H2B; inhibition, % (no concentration beside the values); hit rate 0.6% among 320,000; Q9QR71; AID 2629; cell-free LANA-H2A/H2B peptide, fluorescence polarization; in the data active means inhibition mostly above about 10%, no sharp cut-off; inactive means mostly below about 6.7%;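 further: stock transfer was 7.5 nL into about 10 µL; 0% = median of vehicle wells and 100% = median of positive control wells; one replicate is shown; the record names a cut of 25% in any replicate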
# UCH37 DUB inh: blocks the human deubiquitinase UCH37. Q9Y5K5. purified proteasome/UCH37, Ub-AMC cleavage fluorescence. inhibition, % (concentration not given with the values). hit rate 0.33% among 330,000. AID 588478;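 active means mean of two replicates above 20%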;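 further: 0% = compound-free wells with enzyme and 100% = wells lacking proteasome; stock transfer was 100 nL into about 20 µL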
# Target sequence (Q9Y5K5 whole entry, looked up): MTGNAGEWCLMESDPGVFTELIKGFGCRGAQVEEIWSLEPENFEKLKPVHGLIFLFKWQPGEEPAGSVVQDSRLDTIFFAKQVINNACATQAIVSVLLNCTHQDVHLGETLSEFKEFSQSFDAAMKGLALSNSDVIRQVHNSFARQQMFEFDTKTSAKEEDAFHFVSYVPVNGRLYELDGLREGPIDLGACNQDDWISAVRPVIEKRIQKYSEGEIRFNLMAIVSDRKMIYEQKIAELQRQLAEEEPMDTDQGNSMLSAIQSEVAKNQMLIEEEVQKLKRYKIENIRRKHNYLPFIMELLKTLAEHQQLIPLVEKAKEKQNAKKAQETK
#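 system = Proteasome-associated human UCH37 deubiquitinase | amount = 0.15 nM proteasome as dispensed | medium = pH 7.4 Tris-HCl (50 mM) with ovalbumin, ATP-MgCl2, DTT | incubation = 30 min preincubation with enzyme, 25 min cleavage at room temperature | detection = AMC fluorescence 355/460 nm | read-out basis = percent inhibition | controls = no-proteasome and no-compound wells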
# Numbers without * were called inactive; u = inconclusive; x = not tested or not shown.
SMILES,A1 inh,T cruzi inh,RanGTP-Impb inh,Beta2AR agonist,Calb FLC,Beta cell apopt,LANA-H2B inh,UCH37 DUB inh
S=C(NCC1CCCO1)Nc1ccc(Cl)cc1Cl (stereo not given),0.1,-83,-1.0,6,0,0,5.6,2.8
CCOC(=O)c1cc(-c2ccccc2)sc1NC(=O)C(C)Sc1nnc(N)s1 (stereo not given),0.4,26,0.4,-15,-1,x,-1.0,0.7
COc1ccc(/C=C(/NC(=O)c2ccccc2Cl)C(=O)NCCCC(=O)O)cc1,-0.2,-7,1.4,-1,13,-5,-7.5,4.6
COc1cc(OC)cc(C(=O)N2CCN(Cc3ccccc3Br)CC2)c1,-0.3,-8,5.7,6,-1,-9,-3.2,6.3
CC(C)=CCc1c(-c2ccc(O)cc2O)oc2c3c(cc(O)c2c1=O)OC(C)(C)C=C3,0.8,21,-2.4,x,17,14,23*,1.9
O=C(Nc1ccc(Cl)cc1)ON=C1CCCC1,-0.2,13,0.5,6,-1,-2,-1.0,4.0
CC(O)C(=O)N/N=C/c1ccccc1C(=O)O (stereo not given),1.0,1,-1.5,5,34,-4,-2.0,x
CSc1nccn1CC(=O)Nc1ccc(F)cc1,-1.1,5,2.0,-2,-3,-3,0.9,-2.5
COc1ccc(C(=O)OC/C(O)=C(\C#N)c2nc3ccccc3[nH]2)cc1S(=O)(=O)N1CCOCC1,0.7,-5,u,-3,0,-5,1.6,2.4
CCC(C)/C(C)=N/NC(=O)CNS(=O)(=O)c1ccc([N+](=O)[O-])cc1 (stereo not given),0.9,6,0.4,-2,0,-3,0.4,x
CCCC1C2C(=O)N(c3cccc(C)c3)C(=O)C2ON1c1ccccc1 (stereo not given),0.2,-15,-2.6,-5,3,-3,1.5,3.5
COC(=O)C1=C(CSc2nccn2C)NC(=O)NC1c1cc(C)ccc1C (stereo not given),0.6,-25,-0.7,4,9,-5,0.6,5.4
Cc1cc(C)cc(N2C(=O)CN(Cc3sccc3C)C2=S)c1,-0.1,20,-3.9,-5,-19,x,5.1,1.1
CC1CCN(C(=O)/C(=C\c2cccs2)NC(=O)c2ccccc2)CC1,0.0,-7,x,-5,9,-4,2.8,2.4
CCCC(C)NC(=O)c1ccc(C2SCC(=O)N2Cc2ccco2)cc1 (stereo not given),0.0,1,-2.4,0,-2,3,-1.0,0.1
COc1ccc(CCN2C(=O)c3cccc4c(C(=O)N5CCCCC5)ccc(c34)C2=O)cc1OC,-0.5,21,-0.9,18,-9,10,1.0,9.6
N=C1/C(=C/c2cccn2CCOc2ccccc2)C(=O)N=C2SC=C(c3ccccc3)N12,0.4,20,-12,-1,3,17,1.6,1.3
Cc1cc(Cl)ccc1OCC(=O)OCC(=O)N1CCC(C(N)=O)CC1,-0.7,x,x,-1,x,-6,-2.1,4.1
COC(=O)N/N=C(\C)c1ccc(OC(F)F)cc1,-1.8,-11,-2.2,-26,2,-11,-3.6,x
Cc1cc(S(=O)(=O)Nc2cccnc2)c(C)s1,-0.9,1,8.0,3,0,-1,-3.3,3.3
CCSc1nnc(NC(=O)c2cccc(OCc3c(C)noc3C)c2)s1,-0.1,2,-3.7,-7,-18,12,1.8,-0.6
CCCNC(=S)N1CCCC(c2nc3ccccc3[nH]2)C1 (stereo not given),0.2,-13,1.3,-16,29,-2,-5.8,2.6
COc1cc(/C=N/NC(=O)c2ccc(C)nc2)cc([N+](=O)[O-])c1O,0.5,-11,1.2,0,-5,-3,-3.9,x
CCCCNC(=O)CCCN1C(=O)c2cccnc2Sc2ccccc21,0.5,-11,1.9,-11,1,x,0.2,-0.6
Cc1c(NC(=S)NC(=O)c2ccco2)cccc1-c1nc2ncccc2o1,-0.3,-11,1.1,-10,45,-5,-4.9,3.9
CC(C)(C)c1[nH]nc2c1C(c1ccccc1OC(=O)N1CCOCC1)C(C#N)=C(N)O2 (stereo not given),0.7,0,-0.1,-5,-3,x,-1.1,4.9
Cc1nn(C)c(C)c1S(=O)(=O)N1CCCC(C(=O)NC2CCCCCC2)C1 (stereo not given),0.0,-13,-2.0,-8,-1,0,2.6,4.0
COc1cccc(C2C(C(=O)NCc3ccccc3)=C(C)Nc3ncnn32)c1 (stereo not given),-1.7,4,-1.1,1,-6,x,0.6,-3.1
Cc1oc(-c2ccccc2F)nc1CS(=O)(=O)CC(=O)NCCCc1ccccc1,0.1,-3,0.0,9,-3,3,1.8,2.4
COc1ccccc1N1CCN(CC(O)COc2ccc(S(=O)(=O)N3CCOCC3)cc2)CC1 (stereo not given),-0.3,-11,0.1,0,-27,18,-2.6,0.3
COc1ccc(S(=O)(=O)NC2CC(C)(C)NC(C)(C)C2)c(C)c1C,x,-15,-0.9,x,0,x,x,4.6
COC(=O)c1cc2n(n1)CCN(Cc1cccc(OC)c1)C2=O,0.0,-13,1.0,9,-22,3,20*,1.8
Cc1cc(C)c(C(=O)CN2C(=O)NC3(CCCCC3)C2=O)cc1C,-0.4,-10,6.2,-5,-4,0,-0.2,0.9
Cc1cc(C)c(NC(=O)C2CCCO2)c(C)c1NC(=O)C1CCCO1 (stereo not given),u,-15,-1.6,-11,-4,1,-0.3,0.2
CC(C)c1ccc(/C=C/C(=O)NC(=S)Nc2ccc(CN3CCOCC3)cc2)cc1,-0.3,31,-2.7,13,-8,24,0.0,x
COc1cc(NS(=O)(=O)c2c(C)[nH]c(C)c2C(=O)N2CCCC2)cc(OC)c1OC,0.0,-15,-0.7,8,-1,-5,-4.1,1.7
CC(C(=O)N1CCCCC1)N(C)CC(=O)Nc1ccc(Cl)cc1 (stereo not given),0.2,x,-0.3,-2,-32,2,2.2,3.8
COc1ccccc1-n1c(SCC(=O)O)nc2sc3c(c2c1=O)CCC3,1.1,-10,2.3,-7,-3,-9,-7.2,2.2
CCCc1nc(NCCCOCC)c2nnn(Cc3ccccc3)c2n1,0.6,15,-0.8,2,-1,3,0.9,-1.5
COC(CN(C)C(=O)c1ccc(CS(=O)(=O)c2ccccc2C)o1)OC,0.7,-6,2.6,2,0,-6,14*,1.2

# In a second layout: eleven of the compounds above.
# Every second line gives: A1 inh	T cruzi inh	RanGTP-Impb inh	Beta2AR agonist	Calb FLC	Beta cell apopt	LANA-H2B inh	UCH37 DUB inh
- COc1ccccc1N1CCN(CC(O)COc2ccc(S(=O)(=O)N3CCOCC3)cc2)CC1 (stereo not given)
 : -0.3	-11	0.1	0	-27	18	-2.6	0.3
- COc1ccc(S(=O)(=O)NC2CC(C)(C)NC(C)(C)C2)c(C)c1C
 : x	-15	-0.9	x	0	x	x	4.6
- COC(=O)c1cc2n(n1)CCN(Cc1cccc(OC)c1)C2=O
 : 0.0	-13	1.0	9	-22	3	20*	1.8
- Cc1cc(C)c(C(=O)CN2C(=O)NC3(CCCCC3)C2=O)cc1C
 : -0.4	-10	6.2	-5	-4	0	-0.2	0.9
- Cc1cc(C)c(NC(=O)C2CCCO2)c(C)c1NC(=O)C1CCCO1 (stereo not given)
 : u	-15	-1.6	-11	-4	1	-0.3	0.2
- CC(C)c1ccc(/C=C/C(=O)NC(=S)Nc2ccc(CN3CCOCC3)cc2)cc1
 : -0.3	31	-2.7	13	-8	24	0.0	x
- COc1cc(NS(=O)(=O)c2c(C)[nH]c(C)c2C(=O)N2CCCC2)cc(OC)c1OC
 : 0.0	-15	-0.7	8	-1	-5	-4.1	1.7
- CC(C(=O)N1CCCCC1)N(C)CC(=O)Nc1ccc(Cl)cc1 (stereo not given)
 : 0.2	x	-0.3	-2	-32	2	2.2	3.8
- COc1ccccc1-n1c(SCC(=O)O)nc2sc3c(c2c1=O)CCC3
 : 1.1	-10	2.3	-7	-3	-9	-7.2	2.2
- CCCc1nc(NCCCOCC)c2nnn(Cc3ccccc3)c2n1
 : 0.6	15	-0.8	2	-1	3	0.9	-1.5
- COC(CN(C)C(=O)c1ccc(CS(=O)(=O)c2ccccc2C)o1)OC
 : 0.7	-6	2.6	2	0	-6	14*	1.2

# Other results.
SMILES,A1 inh,T cruzi inh,RanGTP-Impb inh,Beta2AR agonist,Calb FLC,Beta cell apopt,LANA-H2B inh,UCH37 DUB inh
CCOc1ccc(N(CC(=O)NCc2ccccc2Cl)S(=O)(=O)c2c(C)[nH]c(=O)[nH]c2=O)cc1,-0.6,-16,-0.7,1,22,-11,3.0,1.5
COc1ccc(Cl)cc1NC(=S)Nc1ccccc1C,-0.2,13,-2.6,-4,-1,1,-3.7,0.2
CN1CCN(S(=O)(=O)c2ccc(NC(=O)COc3ccccc3Cl)cc2)CC1,0.3,-16,-0.6,-1,4,0,-3.0,2.1
COc1ccc(OC(C)C(=O)N2CCc3ccccc3C2)cc1 (stereo not given),1.2,-4,1.6,-3,-4,1,3.6,3.0
CCOC(=O)c1c(C)noc1-c1ccc(Br)o1,1.8,10,2.4,-7,0,-6,-10,-4.9
COc1ccc(-c2nc(-c3ccc(O)cc3O)cs2)cc1OC,x,35,-2.3,23,u,x,x,0.9
CCC(Oc1ccccc1)C(=O)Nc1nc2c(s1)C(=O)CC(C)(C)C2 (stereo not given),0.1,5,-0.6,0,-21,x,-5.4,-2.3
O=C(NCC1CCCO1)c1cccc(NS(=O)(=O)c2ccc(Br)cc2)c1 (stereo not given),-0.8,2,-1.7,11,-5,-6,-1.9,0.0
COc1ccc(NC(=O)Nc2cccc3c2O[C@H](CN(C)C(=O)Nc2c(C)noc2C)[C@@H](C)CN([C@H](C)CO)C3=O)cc1,0.7,x,x,-1,x,6,0.3,3.5
CC(=O)N1CCN(c2cccc(C)c2C)CC1,0.1,-11,-1.8,-1,6,1,0.8,2.9
CC(=O)c1cccc(NC(=O)Nc2cccs2)c1,1.2,-5,-2.9,-2,-1,-9,0.6,0.7
CC(=O)c1ccc(NC(=O)c2ccc(NC(=O)c3ccco3)cc2)cc1,0.2,-5,7.0,12,-10,-2,5.3,1.0
Clc1cccc(-c2csc(Nc3cccnc3)n2)c1,0.8,41,2.0,-4,2,-3,-4.2,2.0
Oc1ccc(-c2cccc(-c3ccc(O)cc3)c2)cc1,0.7,-7,-3.1,1,-2,-5,4.4,-0.6
CSc1cc(-c2ccccc2)n(Cc2ccccc2Cl)c(=O)c1C#N,-0.4,-19,5.0,-6,16,18,0.5,1.5
Cc1ccc(C(=O)NNC(=O)CCn2nnc3ccccc32)cc1,-0.1,-10,-2.4,14,0,4,-5.3,-1.5
